YopH PTP inh – blocks Yersinia enterocolitica YopH tyrosine phosphatase | fluorescence Ex485/Em525 | inhibition, %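 (about 10 µM by stock and volumes)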 | actives 0.16% (n = 140,000) | AID 898;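 active = inhibition of 50% or more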;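 note: controls were vehicle for no effect and minimum signal wells for full effect; inactives centre near -20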
Arbovirus anti – antivirals against arbovirus infection; arbovirus infection cell-based antiviral screen; inhibition, % at 10 µM; actives 0.37% (n = 200,000); AID 1251;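 active = inhibition from about 30%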;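 note: bluetongue infection of BSR cells; cell survival read as ATP light after 72 h; 0% = infected wells without compound and 100% = uninfected wells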
Mtb growth – M. tuberculosis H37Rv growth inhibitors, H37Rv strain (AID 1626); M. tuberculosis H37Rv growth inhibition; higher % means a stronger effect; one-dose inhibition, % at 10 µM; IC50 in µM for titrated hits; actives 0.95% (n = 220,000);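 active = confirmed in a dose series; inconclusive = inhibition above 80% but not taken into the dose series; inactive = below 80% or under 30% at every dose of the series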;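 note: bacteria incubated seven days before Alamar blue readout; 0% = bacteria only wells and 100% = bacteria with antibiotic wells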
RecA splice inh – blocks M. tuberculosis RecA intein splicing; cell-free RecA intein splicing, fluorescence; actives 0.75% (n = 290,000); inhibition, %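 (about 9 µM by stock and volumes)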; in the data active = inhibition above about 30%; inconclusive = no clear call, values can overlap the other calls;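 note: 0% = vehicle wells and 100% = reference inhibitor control wells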
Target sequence (P9WHJ3 whole entry, looked up, canonical isoform): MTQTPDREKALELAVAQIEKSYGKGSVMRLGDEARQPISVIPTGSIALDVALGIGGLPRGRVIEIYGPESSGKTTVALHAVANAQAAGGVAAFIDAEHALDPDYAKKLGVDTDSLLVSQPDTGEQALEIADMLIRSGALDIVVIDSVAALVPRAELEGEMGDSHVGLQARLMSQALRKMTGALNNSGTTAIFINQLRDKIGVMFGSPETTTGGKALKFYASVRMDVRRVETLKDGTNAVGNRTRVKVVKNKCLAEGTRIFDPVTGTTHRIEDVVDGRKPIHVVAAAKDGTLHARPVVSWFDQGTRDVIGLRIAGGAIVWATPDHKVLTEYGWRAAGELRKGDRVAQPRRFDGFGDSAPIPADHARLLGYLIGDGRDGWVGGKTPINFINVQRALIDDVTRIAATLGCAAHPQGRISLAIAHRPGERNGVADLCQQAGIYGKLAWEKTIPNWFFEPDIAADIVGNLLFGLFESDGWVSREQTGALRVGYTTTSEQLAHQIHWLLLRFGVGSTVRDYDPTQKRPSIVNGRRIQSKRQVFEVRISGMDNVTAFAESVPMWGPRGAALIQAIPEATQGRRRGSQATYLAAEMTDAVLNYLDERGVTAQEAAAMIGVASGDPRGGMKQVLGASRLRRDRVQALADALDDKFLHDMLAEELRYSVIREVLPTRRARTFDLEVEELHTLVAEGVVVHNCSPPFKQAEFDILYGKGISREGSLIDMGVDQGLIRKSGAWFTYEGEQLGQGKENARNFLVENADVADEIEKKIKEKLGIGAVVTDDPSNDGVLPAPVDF
Mtb betalactam – beta-lactam sensitization of Mtb H37Rv; M. tuberculosis H37Rv growth with meropenem, percent inhibition; hits of this screen are not shown here; inhibition, % at 25 µM; AID 434955; actives 0.27% (n = 330,000);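 active = about 74% or more and at least 40 points above the plate without the antibiotic, then above 30% in a dose series; inconclusive = first-round hits that could not be retested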;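 note: growth measured after seven days incubation then overnight dye step; 0% = bacteria only wells and 100% = bacteria with antibiotic; twin plates without the antibiotic show which effects depend on it; some results filed as inactive read as strong as hits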
Arbovirus anti repeat – second read-out of Arbovirus anti, no call of its own (marks repeat the call); inhibition, %; measured here: 10K subset replicate screen; many hits read low in the repeat;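 first of two repeat runs on a subset; 0% = infected and 100% = uninfected wells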
The depositor's hits bear a star; ? = inconclusive; nt = no result given. An excerpt. The share of hits here may be higher or lower than overall.

SMILES | YopH PTP inh | Arbovirus anti | Mtb growth | RecA splice inh | Mtb betalactam | others
C=CCOc1cccc(/C=N/NC(=O)CN(c2cc(Cl)ccc2OC)S(=O)(=O)c2ccc(C)c([N+](=O)[O-])c2)c1 | -36 | -2 | -4% | 2.8 | -1
COc1cccc(NC(=O)CCN2C(=O)C3CC=CCC3C2=O)c1 (stereo not given) | nt | nt | nt | -0.1 | -20
C[C@H](N=C1NS(=O)(=O)c2ccccc21)C(=O)OCc1cc([N+](=O)[O-])cc2c1OCOC2 | nt | nt | -7% | -1.7 | -8
Cc1cc(=O)n(C)c(=O)n1CCCNc1ccccc1 | 26 | 13 | -4% | -1.3 | -5
O=C(Cn1nc(Cc2cccnc2)c2ccccc2c1=O)Nc1cc(F)ccc1F | nt | nt | -8% | -1.7 | 1
CCOC(=O)C(C(=O)Nc1cccc(C)c1)C1CCCCC1 (stereo not given) | -25 | -9 | 8% | 7.6 | -4
CCOc1ccc(N2C(=O)CC(NC3CCN(C(=O)c4cccs4)CC3)C2=O)cc1 (stereo not given) | nt | nt | nt | 1.9 | -1
COC1=C(Nc2ccc(C)cc2)C(=O)c2ccccc2C1=O | -2 | -12 | 13% | 5.1 | 7
CCCOc1ccc(N/C=C/C(=O)C(C)(C)C)cc1 | nt | 8 | 0% | -0.5 | 96
CCN(CC)S(=O)(=O)c1ccc(N2C(=O)Nc3ccccc3N2O)cc1 | 13 | 2 | -2% | -0.1 | -1
Cc1ccc(Nc2nc(=O)[nH]nc2C)cc1 | -35 | 2 | -1% | -3.2 | -5
CCC1(C)CC(CCN(Cc2ccco2)C(C)=O)(c2ccccc2)CCO1 (stereo not given) | nt | 17 | 4% | 4.2 | -3
CCN(CC)S(=O)(=O)c1cc(NC(=O)Cn2ncc(Cl)c(Cl)c2=O)ccc1C | nt | nt | 4% | 52* | -3
Fc1cccc(CSc2nc3ncc(Cl)cc3[nH]2)c1 | nt | nt | 0% | 1.0 | -11
O=C(OCc1cccc([N+](=O)[O-])c1)c1cccnc1 | nt | 16 | 6% | 0.6 | -3
c1ccc2c(c1)NC1(CCCCC1)n1c-2nc2ccccc21 | -31 | 8 | -1% | -27 | -8
Fc1ccc(-c2ccnc3nc(-n4cccc4)nn23)cc1 | -13 | 0 | 15% | -2.8 | -5
O=C(NCc1cccnc1)C1CC2c3ccccc3C1c1ccccc12 (stereo not given) | -37 | 9 | -10% | 1.8 | -11
O=C(COC(=O)Cc1ccc(Cl)cc1Cl)Nc1ccccc1OC(F)F | -7 | -1 | -1% | 2.7 | -2
Cc1cccc2sc(NC(=O)C3CCN(C(=O)c4ccco4)CC3)nc12 | nt | nt | nt | 4.1 | 7

The closing 7 compounds of the part above come first, to join the parts.
SMILES | YopH PTP inh | Arbovirus anti | Mtb growth | RecA splice inh | Mtb betalactam | others
Fc1cccc(CSc2nc3ncc(Cl)cc3[nH]2)c1 | nt | nt | 0% | 1.0 | -11
O=C(OCc1cccc([N+](=O)[O-])c1)c1cccnc1 | nt | 16 | 6% | 0.6 | -3
c1ccc2c(c1)NC1(CCCCC1)n1c-2nc2ccccc21 | -31 | 8 | -1% | -27 | -8
Fc1ccc(-c2ccnc3nc(-n4cccc4)nn23)cc1 | -13 | 0 | 15% | -2.8 | -5
O=C(NCc1cccnc1)C1CC2c3ccccc3C1c1ccccc12 (stereo not given) | -37 | 9 | -10% | 1.8 | -11
O=C(COC(=O)Cc1ccc(Cl)cc1Cl)Nc1ccccc1OC(F)F | -7 | -1 | -1% | 2.7 | -2
Cc1cccc2sc(NC(=O)C3CCN(C(=O)c4ccco4)CC3)nc12 | nt | nt | nt | 4.1 | 7
COC(=O)c1ccc(/C=C(/NC(=O)c2ccccc2)C(=O)N2CCOCC2)cc1 | nt | nt | nt | -0.9 | -5
COc1ccc(C(=O)n2cnc3ccccc32)cc1 | nt | nt | nt | 9.6 | -2
O=C(C[n+]1cccc(CNC(=O)c2ccc(OC(F)F)cc2)c1)Nc1cccc(C(F)(F)F)c1 | -19 | -9 | -1% | 2.2 | 3
CC(C)(C)N(NC(=O)Nc1ccc(Cl)c(Cl)c1)C(=O)c1ccccc1 | -34 | -26 | 10% | 1.0 | -5
CCN(CC)S(=O)(=O)c1ccc(C(=O)NCCc2cc3c(OC)ccc(OC)c3[nH]c2=O)cc1 | -42 | -3 | nt | 2.4 | -2
COc1ccc(S(=O)(=O)N(C)C)cc1NS(=O)(=O)c1ccc(F)c(F)c1F | -15 | 2 | -10% | 2.2 | 7
CCOC(=O)N1CCC(=NNc2ccnc3cc(Cl)ccc23)CC1 | nt | 8 | 1% | -2.9 | 7
COc1ccc2c(c1)N(C(=O)CN1C(=O)C3CCCCC3C1=O)C(C)(C)C=C2C (stereo not given) | -6 | 4 | 0% | 2.6 | -9
CC(=O)COC(=O)C1=NN(c2ccccc2)C(=O)CC1 | nt | nt | nt | -2.0 | 0
Nn1c(Cc2ccccc2)n[nH]c1=S | nt | 9 | 0% | -0.3 | 5
CC1CCN(S(=O)(=O)c2ccc(NC(=O)c3cccs3)cc2)CC1 | -24 | -10 | -7% | 5.0 | -3 | Arbovirus anti repeat=-11
COC(=O)[C@H](CC(C)C)NC(=O)Nc1cccc(Br)c1 | -43 | 6 | 2% | -5.0 | -3
COc1ccc(CN2C(=O)NC(=O)/C(=C/c3ccc([N+](=O)[O-])s3)C2=O)cc1 | nt | nt | -2% | 12 | 99
Cn1c(CN2CCOCC2)nnc1SCc1cccc(F)c1 | nt | 9 | -5% | -1.2 | 1
CC(=O)c1ccc(C(=O)N2CCCC(Nc3ccc(C(C)C)cc3)C2)s1 (stereo not given) | nt | nt | nt | 0.2 | -9
CC1(C)C2CC[C@]3(C)C(CC=C4[C@@H]5C[C@@](C)(CO)[C@@H](O)C[C@]5(C(=O)O)CC[C@]43C)[C@@]2(C)CC[C@@H]1O (stereo not given in full) | nt | nt | -8% | 6.0 | 1
CC(C)C(NC(=O)CC12CC3CC(CC(C3)C1)C2)C(=O)O (stereo not given) | -38 | -7 | nt | -0.6 | ?
CCCCCCCCNC(=O)CC(NS(=O)(=O)c1ccc(NC(C)=O)cc1)C(C)C (stereo not given) | -32 | -11 | -1% | 1.3 | 1
CCCn1cc(CN2CCC(Cc3cccc(F)c3)(C(=O)OCC)CC2)c(C)n1 | nt | nt | -5% | 3.6 | -4
O=C(NCCC1=CCCCC1)C1CCCN(S(=O)(=O)c2ccccc2)C1 (stereo not given) | -33 | -3 | -5% | 0.6 | -6

Looked up one by one from the entries so far, four records:
SMILES | YopH PTP inh | Arbovirus anti | Mtb growth | RecA splice inh | Mtb betalactam | others
O=C(C[n+]1cccc(CNC(=O)c2ccc(OC(F)F)cc2)c1)Nc1cccc(C(F)(F)F)c1 | -19 | -9 | -1% | 2.2 | 3
C[C@H](N=C1NS(=O)(=O)c2ccccc21)C(=O)OCc1cc([N+](=O)[O-])cc2c1OCOC2 | nt | nt | -7% | -1.7 | -8
CC(C)(C)N(NC(=O)Nc1ccc(Cl)c(Cl)c1)C(=O)c1ccccc1 | -34 | -26 | 10% | 1.0 | -5
Cn1c(CN2CCOCC2)nnc1SCc1cccc(F)c1 | nt | 9 | -5% | -1.2 | 1

(list continues)
SMILES | YopH PTP inh | Arbovirus anti | Mtb growth | RecA splice inh | Mtb betalactam | others
Cc1nnc(NC(=O)c2cc(-c3ccncc3)nc3c(C)cccc23)s1 | nt | nt | nt | -0.3 | 13
CCCCCC(=O)NNC1CC(=O)N(c2cccc(OCC)c2)C1=O (stereo not given) | nt | nt | 1% | nt | -7
CCC(C)N(C(=O)COC(=O)COc1c(C)cc(C)cc1C)C1CCS(=O)(=O)C1 (stereo not given) | nt | nt | nt | -5.3 | -2
Nc1nnc(CC(c2ccccc2)c2ccccc2)s1 | -11 | 1 | 2% | 0.7 | -6
N#Cc1ccccc1Cn1cc(C#N)c2ccccc21 | 51* | -30 | -3% | 2.2 | -6
O=C(c1ccc(F)cc1F)N1CCCc2ccccc21 | nt | nt | nt | 2.0 | 14
C/C(=N/NC(=O)c1nnn(-c2nonc2N)c1COc1ccccc1)c1ccccc1Cl | nt | nt | nt | 13 | 0
O=C(O)COc1ccccc1/C=N/NC(=O)CSc1nnc(SCc2cccc3ccccc23)s1 | nt | nt | -6% | 1.1 | -7
CC1CCN(C(=O)/C(=C/c2ccccc2Cl)c2ccccc2)CC1 | -36 | -18 | 2% | 5.4 | -6
Cc1ccc(Cn2nnc(C(=O)Nc3cccc(C)c3C)c2N)cc1 | -34 | -33 | -1% | 1.9 | -6
CC(C)=N/N=C(\N)SCc1ccccc1 | nt | nt | -3% | 1.9 | -2
COc1cc(C(=O)NCCOc2cc(C)cc(C)c2)cc(OC)c1OC | nt | nt | nt | 3.1 | -1
Cc1ccc(Oc2nc(-c3ccccc3)ncc2S(C)(=O)=O)cc1 | -28 | 0 | 4% | -2.9 | -10
O=C(CSc1nnc2scc(-c3ccccc3)n12)NCc1ccco1 | -39 | 10 | -9% | -2.4 | -4
Nn1c(SCC(=O)NC2CCCC2)nnc1-c1ccccc1F | -31 | -8 | -1% | -3.4 | -1
CC(C)CC(NC(=O)OC(C)(C)C)C(=O)NCc1ccccc1 (stereo not given) | -22 | 11 | -4% | -1.7 | -7
Cn1cccc1/C=N\NC(=O)C1COc2ccccc2O1 (stereo not given) | nt | nt | nt | -1.1 | -1
CC1CCCCC1NC(=O)CN1C(=O)c2ccccc2S1(=O)=O (stereo not given) | nt | nt | nt | -1.9 | -2
O=C(c1ccccc1Cl)N1N=C(c2cccs2)CC1c1cccc(O)c1 (stereo not given) | nt | nt | nt | 7.0 | 3
CCOc1ccc(Oc2cc(NC(=O)c3ccco3)cc([N+](=O)[O-])c2)cc1 | -44 | -17 | nt | nt | -2
O=C(Cn1cnc2ccccc2c1=O)NCCC(=O)N1CCN(Cc2ccccc2)CC1 | -26 | -2 | -1% | 0.5 | 4
CC(C)NC(=O)Cn1cc(C(=O)C2CC2)c2ccccc21 | nt | 0 | -5% | 1.2 | -4
O=C(Nc1ccc(Cn2cccn2)cc1)c1ccc(COc2ccccc2Br)cc1 | -38 | -27 | 7% | 2.8 | -9
O=C(OCCN1CCCCC1)c1ccccc1Cl | -35 | 5 | -15% | -1.0 | -12
O=C(Nc1cccc(C(=O)Nc2ccc(Br)cc2)c1)c1ccccc1 | nt | nt | nt | 1.2 | 0
CC(=O)c1sc(C(C)(C)C)cc1NC(=O)/C=C/C(=O)O | nt | nt | -6% | 19 | -4
COc1cc(/C=N/NC(=O)c2ccncc2)cc(OC)c1OC | nt | nt | nt | -0.2 | 98
C(=N\Nc1nc2ccccc2[nH]1)/c1c[nH]c2ccccc12 | -21 | -40 | 29% | 22 | 90

Already shown: entries from further up.
SMILES | YopH PTP inh | Arbovirus anti | Mtb growth | RecA splice inh | Mtb betalactam | others
COc1cc(/C=N/NC(=O)c2ccncc2)cc(OC)c1OC | nt | nt | nt | -0.2 | 98
C(=N\Nc1nc2ccccc2[nH]1)/c1c[nH]c2ccccc12 | -21 | -40 | 29% | 22 | 90
